Compound activity: PubChem BioAssay, National Center for Advancing Translational Sciences (NCATS)
StopGo RLuc – FMDV 2A StopGo reporter, Renilla signal; HEK cells with a luciferase reporter of 2A StopGo recoding; Potency, µM (highest dose often 57.5 µM), without a hit: at the top dose signal change, negative = less light; actives 0.32% (n = 120,000); AID 1745857; active means well fitted falling curve with a large enough effect; inconclusive means small, poorly fitted or top-dose-only effect; inactive means no such curve, though single readings can be large or run the other way; further: nearly all actives have a fitted effect of over 55% in size; overnight with compound
2A firefly – lowers the firefly signal of an FMDV 2A StopGo reporter | AID 1745856 | HEK cells with a luciferase reporter of 2A StopGo recoding | Potency, µM (doses to about 57.5 µM), for inactives: at the highest dose signal change, negative = less light | actives 0.23% (n = 120,000); active = well fitted falling curve with a large enough effect; inconclusive = small, poorly fitted or top-dose-only effect; inactive = no such curve, though single readings can be large or run the other way; further: nearly all actives have a fitted effect of over 60% in size; overnight with compound
* = called active by the depositor; ? = inconclusive; [ ] = another dose, or the depositor's remark. On the % scale 0 is the no-effect control and ±100 the full control effect; potency means the concentration at half of the fitted maximal effect. These rows are one share of the data; count on the stated rates, not on these rows.

entry	Compound	StopGo RLuc	2A firefly
1	O=C(Nc1cc(-c2ccccc2)nn1C1CCS(=O)(=O)C1)c1cccs1 (configuration not stated)	24%	83%[activator]
2	CC(=O)C(Sc1nc(C)cc(C)n1)c1ccccc1 (configuration not stated)	12%	6%
3	CC(c1ccc(S(C)(=O)=O)cc1)N(C)S(=O)(=O)c1cc(Cl)cc(Cl)c1 (configuration not stated)	16%	-11%
4	CC(=O)Nc1ccc(S(=O)(=O)N2CCC(N3CCN(Cc4ccc(C)cc4)C(=O)C3=O)CC2)cc1	-13%	-15%
5	NS(=O)(=O)c1cc2c(cc1Cl)NC(C1CC3C=CC1C3)NS2(=O)=O (configuration not stated)	-3%	-5%[11.5 µM]
6	O=C(Nc1nc2n(n1)C(c1ccccc1)C=C(c1ccccc1)N2)c1ccccc1 (configuration not stated)	-5%	18%
7	CC(=O)N(Cc1cccnc1)c1nc2c(F)cc(F)cc2s1	-4%	5%
8	O=C(c1ccco1)n1nc(-c2ccc(Cl)cc2)nc1NCc1ccc(F)cc1	1%	1%
9	CN(CC(=O)Nc1ccccc1C(F)(F)F)C(=O)COc1ccc2oc3c(c2c1)CCCC3	-17%	-6%
10	O=C(O)COCC(=O)NCC1CCCO1 (configuration not stated)	12%	2%
11	C=CCNC(=O)NC(=O)COC(=O)Cc1cccc(C(F)(F)F)c1	8%	-4%
12	CCc1ccc(S(=O)(=O)c2nnn3c2nc(Nc2cc(OC)cc(OC)c2)c2cc(Cl)ccc23)cc1	-9%	-10%
13	Cc1ccc(C)c(N2CCN(S(=O)(=O)c3ccc4[nH]c5c(c4c3)CCCC5)CC2)c1	17%	1%
14	CCNc1nc(-c2ccc(S(=O)(=O)N3CCCCCC3)cc2)cs1	-13%	-9%
15	CC1(C)CC(NCc2cccnc2)=CC(=C(C#N)C#N)C1	-9%[1.06 µM]	22%
16	CCn1c(NCCc2ccccc2)nc2c1c(=O)[nH]c(=O)n2C	-3%	-2%
17	CN(Cc1cccs1)C(=O)CSc1nc2ccsc2c(=O)n1C	-16%	-18%
18	CCCCn1nc(C(=O)Nc2ccc(Cl)cc2)c2ccccc2c1=O	0%	19%
19	Cc1ccc2c(CN(C)CCOc3ccc(F)cc3)cc(=O)oc2c1	17%	-3%
20	O=C(NCc1ccccc1F)c1cccc(NC(=O)N2CCSc3ncccc32)c1	?	?
21	Cc1ccc(CNC(=O)c2cc(-c3cccnc3)nc3ccc(C)cc23)cc1	-6%	2%
22	COc1ccc(-c2csc3nc(-c4ccccc4)oc(=O)c23)cc1OC	-11%	-9%
23	COC(=O)c1c(SCC(=O)Nc2cc(OC)cc(OC)c2)[nH]c2ccc(C)cc2c1=O	-4%	-4%
24	Cc1ccc(NC(=O)CCc2c(C)c3ccc(C)cc3oc2=O)cc1	-2%	-5%
25	Cc1c(Cl)cccc1NC(=O)CC(C)(C(=O)O)c1ccccc1 (configuration not stated)	20%	0%
26	O=C(CSc1ncc2c(n1)-c1cc(Cl)ccc1N(Cc1ccccc1)S2(=O)=O)NCCc1ccccc1	-14%	-14%
27	Cc1ccc(C(=O)OCc2ncc(-c3ccccc3)o2)c(O)c1	8%	108%[activator]
28	COc1ccc(Cl)cc1NC(=O)Cn1nc(C(F)(F)F)c2c1CCCC2	16%	-3%
29	Cc1cc(=O)oc2cc(OCC(=O)Nc3ccc(CCO)cc3)ccc12	-9%	1%
30	Cn1ncc(C(=O)NCc2cccs2)c1-n1cccc1	-2%	5%
31	C=CCN(Cc1ccc(OC)cc1)C(=O)c1cc(=O)c2ccccc2o1	27%	12%
32	COc1ccc(NC(=O)c2ccco2)cc1NC(=O)COc1ccccc1Cl	13%	3%
33	CCCn1nc(C(=O)N(C)C(C)c2ccc(F)c(F)c2)c2ccccc2c1=O (configuration not stated)	15%	-7%
34	Cc1ccc(NC(=O)C(=O)NCC(c2ccc3c(c2)OCO3)N2CCN(C)CC2)cc1C (configuration not stated)	6%	-6%
35	Cc1nn(C(=O)C2CCCN2S(=O)(=O)c2ccccc2)c(C)c1Sc1ccccc1 (configuration not stated)	16%	5%
36	Cc1oc(-c2cccc(Cl)c2)nc1CNC(=O)Nc1ccc(Cl)cc1	2%	10%
37	Cc1cccc(NC(=O)C(Cc2ccccc2)n2cccc2)c1C (configuration not stated)	25%	24%
38	Cc1ccc(NC(=O)CCCn2nc(C)c3c(C)n(-c4ccccc4)nc3c2=O)c(Cl)c1	-9%	-14%
39	Cc1ccccc1C1C(C#N)=C(N)Oc2c1oc(CO)cc2=O (configuration not stated)	-16%	-17%
40	O=C(CSc1nnnn1-c1ccccc1)Nc1ccccc1C(=O)O	71%[activator]	158%[activator]

Next part, overlapping the part above by 2 compounds.
entry	Compound	StopGo RLuc	2A firefly
39	Cc1ccccc1C1C(C#N)=C(N)Oc2c1oc(CO)cc2=O (configuration not stated)	-16%	-17%
40	O=C(CSc1nnnn1-c1ccccc1)Nc1ccccc1C(=O)O	71%[activator]	158%[activator]
41	COc1ccc(-n2nc(C(=O)Nc3cc(C)c(Cl)cc3OC)c3c4ccccc4n(C)c3c2=O)cc1	-11%	-11%
42	CCOc1ccc(-c2[nH]nc3c2C(c2ccc(OCC)c(OCC)c2)C(C#N)=C(N)O3)c(OCC)c1 (configuration not stated)	-17%	-9%
43	Cc1cccc(NC(=O)C2CCCC2)c1C	2%	21%
44	COc1ccccc1Oc1c(NS(=O)(=O)c2ccc(C(C)(C)C)cc2)nc(-c2ncccn2)nc1OCCO	22%	2%
45	CCOC(=O)c1ccc(Nc2cc(-c3ccccc3)nc(C)n2)cc1	-3%	-12%
46	CC(Sc1nnnn1Cc1ccccc1)C(=O)c1cccc(Cl)c1 (configuration not stated)	45%[activator]	3%
47	CCCNC(=O)C(C)OC(=O)c1cc(=O)[nH]c2ccccc12 (configuration not stated)	8%	11%
48	O=C(NC1(C(F)(F)F)NC(=O)N(CCc2ccccc2)C1=O)c1ccc(Cl)cc1 (configuration not stated)	-3%	65%[activator]
49	CCOc1cc(C#N)ccc1OCc1ccc(OC)c(F)c1	11%	0%
50	COc1cccc(C(=O)N2CCc3cc(OC)c(OC)cc3C2COc2ccc3c(C)cc(=O)oc3c2)c1 (configuration not stated)	-4%	-18%
51	CCCOc1ccc(N2CC(C(=O)Nc3cccc(Cl)c3Cl)CC2=O)cc1 (configuration not stated)	0%	0%
52	C/C=C/Cn1c(SCc2ccccc2Cl)nc2c1c(=O)[nH]c(=O)n2C	-2%	5%
53	O=C(NCCC12CC3CC(CC(C3)C1)C2)c1ccccc1Cl	80%[activator]	143%[activator]
54	O=C(O)c1cccc(-c2cccs2)c1	12%	134%[activator]
55	Cc1ccccc1CSc1ncc(Cl)c(C(=O)Nc2nc3ccc(F)cc3s2)n1	3%	23%
56	CCCNC(=O)NC(=O)COC(=O)c1ccc2nc(C)c(C)nc2c1	-12%	-2%
57	Cc1cccc(NC(=O)c2ccc3c(c2)NC(=O)CS3)n1	?	184%[activator]
58	Cc1nn(C)c(C)c1C1SCC(=O)Nc2c1cnn2-c1ccccc1 (configuration not stated)	-11%	1%
59	O=C(COc1ncnc2ccc(Br)cc12)Nc1cccc(Br)c1	11%	22%
60	Cc1ccc(N2CC(c3nnc(NC(=O)c4ccco4)s3)CC2=O)cc1C (configuration not stated)	-5%	7%
61	O=C1C(=O)N(c2ccccn2)C(c2cccc(Oc3ccccc3)c2)/C1=C(\O)c1ccccc1 (configuration not stated)	-10%	34%[activator]
62	CC(C)=CC(=O)N(C)Cc1ccc(C(=O)NCC(F)(F)F)cc1	-15%	-2%
63	CCn1cc(S(=O)(=O)c2cc(C)cc(C)c2)c(=O)c2cc(F)c(N3CCCCC3)cc21	10%	-17%
64	CCCCN1C(C(=O)c2ccccc2)=C(OC(=O)CC)c2ccccc2S1(=O)=O	-3%	?
65	CCc1cccc2c(C(=O)CSc3nnnn3C3CCCC3)c[nH]c12	10%	0%
66	O=C(CC1CCCC1)NC12CC3CC(CC(C3)C1)C2	4%	9%
67	Cc1nn2c(=O)cc(COc3ccc(/C=C(\C#N)C(=O)Nc4ccccc4C)cc3)nc2s1	-12%	-5%
68	Cc1cc(C)c(/C=C/C(=O)c2cccnc2)cc1C	6%	-5%
69	O=C(Nc1ccc2c(c1)OCCCO2)c1ccc(SCc2cscn2)cc1	?	-10%
70	CCCSc1ncc(Cl)c(C(=O)Nc2sc(C(C)=O)c(C)c2C(=O)OCC)n1	1%	11%
71	COc1cccc(CNC(=O)CCCN2C(=O)CSc3c2c(C)nn3-c2ccccc2)c1OC	-7%	0%
72	CC(C)Oc1ccc(CNC(=O)c2ccc3c(c2)N(C)C(=O)C2CCCCN32)cc1 (configuration not stated)	38%[activator]	61%[activator]

Pulled one by one from above (3):
entry	Compound	StopGo RLuc	2A firefly
69	O=C(Nc1ccc2c(c1)OCCCO2)c1ccc(SCc2cscn2)cc1	?	-10%
65	CCc1cccc2c(C(=O)CSc3nnnn3C3CCCC3)c[nH]c12	10%	0%
70	CCCSc1ncc(Cl)c(C(=O)Nc2sc(C(C)=O)c(C)c2C(=O)OCC)n1	1%	11%

Next section
entry	Compound	StopGo RLuc	2A firefly
73	CC1CCC(NC(=O)c2ccccc2S(C)(=O)=O)CC1 (configuration not stated)	6%	111%[activator]
74	CCc1ccc(-c2nc(SCc3nc4cc(S(=O)(=O)N(C)C)ccc4n3CC)n[nH]2)cc1	1%	50%[activator]
75	N#Cc1ccccc1Sc1ccccc1C(=O)OCC(=O)Nc1ccc(N2CCOCC2)cc1	11%	0%
76	O=C(NCc1cccc(F)c1)c1ccc(CN2C(=O)CSc3ncccc32)cc1	2%	-5%
77	COc1cc(OC)c(NC(=O)CCCn2nc(C)c3sc4ccccc4c3c2=O)cc1Cl	151%[activator]	-12%
78	S=c1nccc(-c2ccccc2)[nH]1	-3%	25%
79	COC(=O)c1ccc(NC(=O)CC2C(=O)N(c3ccc(Cl)cc3)C(=O)N2Cc2cccs2)cc1 (configuration not stated)	63%[activator]	?
80	COc1ccc(/C=C/c2nc(C#N)c(N(C)C)o2)cc1OC	26%	137%[activator]
81	CCS(=O)(=O)NCCc1csc2nc(-c3ccc(C)cc3)nn12	19%	-3%
82	COc1ccc(-c2nc(C#N)c(N3CCCCC3)o2)cc1OC	9%	0%
83	O=C(Nc1ccc2nc[nH]c(=O)c2c1)c1ccc(F)cc1F	15%	166%[activator]
84	CC(C)CNC(=O)NC(=O)CSC1=Nc2ccccc2CS1	-6%	-30%
85	Cc1nc2ccc(C(=O)N3CCOC(C)C3)cc2nc1C (configuration not stated)	-5%	15%
86	CCCNc1c(NC(=O)c2ccc3c(c2)OCO3)c(=O)oc2ccccc12	6%	14%
87	O=C(CSc1nnc(-c2ccc(S(=O)(=O)N3CCCCCC3)cc2)o1)c1ccccc1	4%	11%
88	O=C(O)C#CC12CC3CC(CC(C3)C1)C2	24%	38%
89	COc1cc(-c2nnc(-c3cccc4ccccc34)o2)cc(OC)c1OC	39%[activator]	106%[activator]
90	N#Cc1ccccc1OCc1cccc(C(N)=O)c1	13%	191%[activator]
91	O=C(Nc1ccc(OCc2ccccc2)cc1)C(c1ccccc1)c1ccccc1	9%	40%[activator]
92	Cc1ccc2nc(-c3ccccc3)cc(C(=O)NCCCn3ccnc3)c2c1	55%[activator]	35%[activator]
93	Cc1ccc(S(=O)(=O)N2CCN(C(=O)C3CC(=O)Nc4cc(F)ccc43)CC2)c(C)c1 (configuration not stated)	-12%	-16%
94	CC(=O)c1c(C)oc2c(Cl)cc(NS(=O)(=O)c3ccc4ccccc4c3)cc12	13%	3%
95	O=C(NCc1ccco1)c1ccc2c(c1)N(Cc1ccc(Cl)cc1)C(=O)c1ccccc1S2	58%[activator]	-27%
96	CCNc1c(NC(=O)Nc2ccc(C)cc2)c(=O)oc2ccccc12	8%	18%
97	N#Cc1ccccc1CNc1cccc(Cl)c1	23%	45%[activator]
98	O=C(CCc1ncc(-c2ccc(F)cc2F)o1)NCC(c1ccccc1)N1CCCC1 (configuration not stated)	-17%	-2%
99	CCOC(=O)c1cnc(N2CCN(c3ccccn3)CC2)c2ccccc12	?	?
100	CCOc1ccc(-n2c(SCC(=O)Nc3ccc(F)cc3)nc3c([nH]c4ccccc43)c2=O)cc1	-10%	-6%
101	Cc1c(S(=O)(=O)c2ccccc2)c(NC(=O)C(C)C)n(Cc2ccccc2)c1C	38%[activator]	-14%
102	CCOc1ccc(CN(C)c2nn3c(=O)cc(C)nc3s2)cc1	-14%	6%
103	Cc1cc(=O)oc2cc(OCc3ccc(C(=O)OCC4CCCO4)cc3)ccc12 (configuration not stated)	-1%	52%[activator]
104	CC(C)C(=O)NCCCOC1CCCCC1	-3%	6%
105	COc1ccccc1C(=O)NC1CC1	-8%	7%
106	Fc1ccc(/C=N/Nc2ccc(F)cc2)cc1	19%	0%
107	CCOc1ccc(NC(=O)C(C)Oc2ccc(F)cc2)c2cccnc12 (configuration not stated)	0%	9%
108	O=C(Cc1ccc(-c2ccccc2)cc1)NCCS(=O)(=O)N1CCN(c2ccccc2F)CC1	24%	0%
109	CN(C)c1cc(CNC(=O)Nc2nnc(C3CC3)s2)ccn1	7%	37%[activator]
110	COc1ccc(-c2cn3c(n2)sc2cc(C(=O)NCCCc4ccccc4)ccc23)cc1	5%	46%[activator]
111	CCCN1C(C(=O)c2ccccc2)=C(OC(=O)C(C)(C)C)c2ccccc2S1(=O)=O	20%	-16%
112	Cc1oc2cc(OCc3ccccc3)ccc2c(=O)c1-c1ccc2c(c1)OCCCO2	?	?
113	COc1cccc(NC(=O)c2oc3ccccc3c2NC(=O)COc2ccccc2C)c1	1%	129%[activator]
